# GIV-Gai inh: GIV-Galpha-i interaction inhibition; percent of control (FP), % (test concentration not listed); P08753; hit rate 0.42% among 210,000; Galpha-i3/FITC-GIV peptide fluorescence polarization, 90 min; active compounds read low; scaled: aluminum fluoride 0%, vehicle 100%;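 active means replicate mean at 85% of control or lower, very high polarization wells dropped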;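 further: lower values mean more displacement of the GIV peptide from Galpha-i3; wells of about 15 µL received 100 nL stock; the first replicate is given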
# Target sequence (P08753 whole entry, looked up): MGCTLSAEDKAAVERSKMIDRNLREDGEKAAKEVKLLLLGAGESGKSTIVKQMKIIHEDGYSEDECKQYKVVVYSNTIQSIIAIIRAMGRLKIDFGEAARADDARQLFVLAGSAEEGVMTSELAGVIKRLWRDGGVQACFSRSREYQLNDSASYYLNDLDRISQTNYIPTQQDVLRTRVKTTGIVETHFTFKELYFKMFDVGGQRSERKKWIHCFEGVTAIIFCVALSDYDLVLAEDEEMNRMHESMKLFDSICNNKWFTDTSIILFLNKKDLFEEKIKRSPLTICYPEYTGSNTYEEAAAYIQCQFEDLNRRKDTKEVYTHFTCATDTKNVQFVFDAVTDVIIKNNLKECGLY
# HCMV UL50-53 inh: cytomegalovirus nuclear egress complex inhibition. HTRF UL50-UL53 interaction, normalized percent inhibition. inhibition, % (no concentration beside the values). hit rate 0.15% among 190,000;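 active means both replicates at 50% or more, plus weaker picks with an unusually low signal ratio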;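 further: stock transfer was 100 nL into about 20 µL; 0% = negative control wells and 100% = wells with untagged competitor protein; inactives centre near -12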
# Sa growth inh: blocks Staphylococcus aureus growth; relative growth, % (no concentration beside the values); hit rate 0.53% among 170,000; S. aureus RN4220 growth, OD600, 20 h, 42 °C; active compounds read low;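 active means growth at 42 °C up to 50% and 20 or more points under that at 30 °C, or under 10% at both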;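 further: 300 nL library stock went into each well; scaled to the means of positive and negative controls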
# Sa growth inh second temp: recorded beside Sa growth inh, whose call it bears; relative growth, %; measured here: growth at 30 °C;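 optical density after 20 h as mean of two plates; 100% = untreated growth and lower means inhibition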
# An asterisk follows results filed as active; x = not tested or not shown; & = joins results of further samples. This is a subset; the hit share may differ from the screen's.
SMILES,GIV-Gai inh,HCMV UL50-53 inh,Sa growth inh,others
O=C(OC1C[C@@H]2CC3C[C@H](C1)N2CC3=O)c1c[nH]c2ccccc12 (some centres undefined),x,x,80.9,Sa growth inh second temp=84.6
CC(=O)O[C@@]12CO[C@@H]1C[C@H](O)[C@@]1(C)C(=O)[C@H](O)C3=C(C)[C@@H](OC(=O)[C@H](O)[C@@H](NC(=O)OC(C)(C)C)c4ccccc4)C[C@](O)([C@@H](OC(=O)c4ccccc4)[C@H]21)C3(C)C,x,x,106.7,Sa growth inh second temp=84.6
C[C@@H]1C[C@H]2[C@@H]3C[C@H](F)C4=CC(=O)C(Cl)=C[C@]4(C)[C@@]3(F)[C@@H](O)C[C@]2(C)[C@@]1(O)C(=O)CO,x,x,83.0,Sa growth inh second temp=53.4
O=C(NC1CCc2ccccc21)C1CCN(Cc2noc(-c3ccc(F)cc3)n2)CC1 (centres undefined),103.9,x,x,
COc1ccc(-c2noc(-c3nn(-c4cccc(F)c4)ccc3=O)n2)cc1OC,107.4,x,x,
CCNC(=O)N1CCCN(S(=O)(=O)CC)CC1,100.8,x,x,
Cc1nc(C2CCCN2Cc2ccc(F)cc2F)n[nH]1 (centres undefined),102.6,x,x,
CC(=O)Nc1nc(N2CCC(C(=O)NCc3ccccc3)CC2)sc1C(=O)N1CCCC1,104.9,x,x,
O=S(=O)(c1cc(-c2nnc(-c3ccc(F)cc3)o2)ccc1Cl)N1CCOCC1,103.2,x,x,
Cc1ccc(CNC(=O)C2(C)CCCN(C(=O)NC(C)C)C2)cc1 (centres undefined),117.7,x,x,
Cc1sc(C)c(S(=O)(=O)Nc2ccccc2F)c1-c1cc(C(F)(F)F)on1,104.8,x,x,
Fc1ccc(-c2nc(-c3ccc4nncn4c3)no2)cc1F,110.2,x,x,
Cc1sc(-c2cc(C(F)(F)F)on2)cc1S(=O)(=O)NCCc1cccs1,104.7,x,x,
Fc1ccc(-c2nc3cnc(Br)cn3c2Nc2ccc3c(c2)OCCO3)cc1,100.8,x,x,
CCc1nc(-c2cc(S(=O)(=O)Nc3ccc(F)cc3Cl)c(C)s2)cs1,102.3,x,x,
Cc1ccc(/C=C2\N=C(c3ccc(C4=N/C(=C\c5ccc(C)o5)C(=O)O4)cc3)OC2=O)o1,107.7,x,x,
Cc1ccc(NS(=O)(=O)c2cc(-c3nc(C(C)(C)C)cs3)cs2)c(F)c1,104.1,x,x,
CC1(C(=O)NC2CC2)CC(c2ccccc2)=NO1 (centres undefined),111.7,x,x,
Cc1c(F)cccc1NS(=O)(=O)c1cc(-c2nc(C(C)(C)C)cs2)cs1,105.8,x,x,
Cn1cc(-c2ccccc2)c2c1c(=O)n(C)c1nn(Cc3nc(-c4ccccc4)no3)c(=O)n21,107.3,x,x,
CN[C@@H]1C[C@H]2O[C@@](C)([C@@H]1OC)n1c3ccccc3c3c4c(c5c6ccccc6n2c5c31)C(=O)N[C@H]4O,x,-11.6,x,
COc1ccc(F)c(F)c1C(=O)c1cnc(NC2CCN(S(C)(=O)=O)CC2)nc1N,x,3.3,x,
O=C(O)CCC(=O)Nc1nc(-c2ccc3ccccc3c2)cs1,x,-77.4,x,
CN1C(=O)CC(C)(c2ccccc2)C1=O (centres undefined),x,7.3,x,
CC[C@]12CCCN3CCc4c(n(c5ccccc45)[C@@](O)(C(=O)OC)C1)[C@@H]32,x,-18.4,x,

# (more compounds)
SMILES,GIV-Gai inh,HCMV UL50-53 inh,Sa growth inh,others
Nc1nc(CC(=O)Nc2ccc(CCNCC(O)c3ccccc3)cc2)cs1 (centres undefined),x,-8.3,x,
Cc1cc(C(N)=O)ccc1-n1c(CCC(=O)O)ccc1-c1ccc(-n2ccnc2)cc1,x,12.4,x,
Cn1cnc2c(F)c(Nc3ccc(Br)cc3F)c(C(=O)NOCCO)cc21,x,-15.1,x,
CCCCc1c(-c2ccc(OC)cc2)[nH]c2nccnc12,x,-5.0,x,
COc1cc2ncnc(Nc3ccc(F)c(Cl)c3)c2cc1NC(=O)C=CCN1CCCCC1,x,2.1,x,
N#CC(c1ccnc(NCCc2cccnc2)n1)c1nc2ccccc2s1 (centres undefined),x,-1.1&11.4&-3.0&8.3,x,
CCC(C)n1ncn(-c2ccc(N3CCN(c4ccc(OCC5CO[C@](Cn6cncn6)(c6ccc(Cl)cc6Cl)O5)cc4)CC3)cc2)c1=O (some centres undefined),x,4.5&-27.1,x,
CC(=O)O[C@]12COC1CC(O)[C@]1(C)C(=O)C(O)C3=C(C)C(OC(=O)C(O)C(NC(=O)OC(C)(C)C)c4ccccc4)C[C@](O)(C(OC(=O)c4ccccc4)C21)C3(C)C (some centres undefined),x,-19.5,x,
Cc1c(NC(=O)OCC2COCCN2)cn2ncnc(Nc3ccc4c(cnn4Cc4cccc(F)c4)c3)c12 (centres undefined),x,-49.2,x,
Cc1ccc(C(=O)C(C)CN2CCCCC2)cc1 (centres undefined),x,-8.3,x,
Cc1cc(O)c2c(c1)C(=O)c1cccc(O)c1C2=O,x,-39.2,x,
CC1(C)Oc2ccc(C#N)cc2[C@@H](N2CCCC2=O)[C@@H]1O,x,-2.7,x,
CCOc1ccc(Nc2nc(-c3c(C)nc4ccccn34)cs2)cc1,x,-8.2,x,
Cc1ccccc1C(C(=O)NC1CCCCC1)N(C(=O)Cn1ccnc1C)c1cccc(F)c1 (centres undefined),x,6.3,x,
c1ccc(-c2nc3scc(-c4ccccc4)n3n2)cc1,x,-1.5&-8.2,x,
OC1CCC(Nc2ncc3nc(Nc4c(F)cc(F)cc4F)n(C4CCOC4)c3n2)CC1 (centres undefined),x,-5.9&-1.8&-12.5&-9.7,x,
Cc1cc(CN2CCN(c3c(Br)cnc4nc(-c5ccc(N6CCN(C)CC6)cc5)[nH]c34)CC2)no1,x,33.4,x,
COc1ccc2cc(-c3nc(-c4ccc(S(C)=O)cc4)[nH]c3-c3ccncc3)ccc2c1 (centres undefined),x,-65.7,x,
O=C(c1ccc(C=Cc2n[nH]c3ccccc23)cc1)N1CCNCC1,x,-100.8,x,
c1ccc2c(Oc3nc(Nc4ccc(N5CCOCC5)cc4)c4ncn(C5CCCCC5)c4n3)cccc2c1,x,-14.7&-10.9&-10.9,x,
Cc1ccc(-n2nc(C(C)(C)C)cc2NC(=O)Nc2ccc(OCCN3CCOCC3)c3ccccc23)cc1,x,-32.2,x,
O=C(Nc1cccc(C(F)(F)F)c1)Nc1cc(S(=O)(=O)NC2CC2)ccc1-c1ccsc1,x,-0.2,x,
CCN(CC)S(=O)(=O)c1ccc(C(=O)O)cc1,x,-9.9,x,
Cc1cn(C2OC(CO)C(O)C2F)c(=O)[nH]c1=O (centres undefined),x,-2.5,x,
O=C(c1cn(Cc2cncn2Cc2ccc(Br)cc2)cc1-c1cccc2ccccc12)N1CCOCC1,x,-15.4,x,

# Filtered by structure, the compounds so far containing a cyano group
SMILES,GIV-Gai inh,HCMV UL50-53 inh,Sa growth inh,others
N#CC(c1ccnc(NCCc2cccnc2)n1)c1nc2ccccc2s1 (centres undefined),x,-1.1&11.4&-3.0&8.3,x,
CC1(C)Oc2ccc(C#N)cc2[C@@H](N2CCCC2=O)[C@@H]1O,x,-2.7,x,

# Going on with the list:
SMILES,GIV-Gai inh,HCMV UL50-53 inh,Sa growth inh,others
Cc1ccc(C(=O)Nc2ccc(CN3CCN(C)CC3)c(C(F)(F)F)c2)cc1C#Cc1cnc2[nH]ncc2c1,x,-0.4,x,
CN1CCC(Nc2ncc3ncnc(Nc4ccc(F)c(Cl)c4)c3n2)CC1,x,-49.4,x,
COc1ccc([C@@H]2CNC(=O)C2)cc1OC1CCCC1,x,-6.5,x,
C[C@@H]1CC(=O)NN=C1c1ccc(NN=C(C#N)C#N)cc1,x,-118.7,x,
OCC(O)CN1CCN(c2ccccc2)CC1 (centres undefined),x,-14.7&-1.2&-15.3,x,
CN1CCN(c2cc3c(cc2F)c(=O)c(C(=O)O)cn3-c2ccc(F)cc2)CC1,x,-43.5,x,
O=C(O)CCC/C=C\C[C@H]1[C@@H](/C=C/[C@@H](O)CCc2ccccc2)[C@H](O)C[C@@H]1O,x,-17.5&-17.5,x,
O=C(NCCCN1CCC2(CC1)OCc1ccccc12)[C@H]1CCCN1Cc1ccccc1,x,0.4,x,
CC(=O)OCC(=O)[C@@]1(O)CC[C@H]2[C@@H]3CCC4=CC(=O)CC[C@]4(C)C3(F)C(=O)C[C@@]21C (some centres undefined),x,-23.3,x,
CCOC(=O)C(CCc1ccccc1)NC(C)C(=O)N1C(=O)N(C)CC1C(=O)O (centres undefined),x,-21.8,x,
COc1cc(N2CCC(N(C)C)CC2)ccc1Nc1ncc(Cl)c(Nc2ccccc2P(C)(C)=O)n1,x,-8.5,x,
CS(=O)(=O)N1CCc2c(-c3cnc(N)nc3)nc(N3CCOCC3)nc21,x,5.2,x,
Cc1cc(-c2ncc(CC(=O)Nc3ccc(-c4cnccn4)cn3)cc2C)ccn1,x,2.9,x,
Cc1[nH]c(/C=C2\C(=O)Nc3ccccc32)c(C)c1CCC(=O)O,x,-120.6,x,
COc1cc2nccc(Oc3ccc(NC(=O)Nc4cc(C)on4)c(Cl)c3)c2cc1OC,x,-0.6&-18.8&-7.6&-8.5&-4.3&-6.9&-19.7&-7.0&-10.6,x,
O=C(NC1CCNCC1)c1[nH]ncc1NC(=O)c1c(Cl)cccc1Cl,x,-4.5&-11.3&-7.4&-2.9&-4.0&-8.1&-7.0&3.0,x,
CNC(=O)c1ccc(C)c(-n2c(C)cc(OCc3ccc(F)cc3F)c(Br)c2=O)c1,x,-12.9,x,
O=c1cc(N2CCOCC2)nc2c3ccccc3ccn12,x,-23.7&-4.0,x,
NC(=O)c1ccc(-c2nc(-c3ccc4c(c3)OCO4)c(-c3ccccn3)[nH]2)cc1,x,-17.0&-23.0&6.8&6.8&-31.2,x,
CN1CCN(CCCN2c3ccccc3Sc3ccc(S(=O)(=O)N(C)C)cc32)CC1,x,-21.1,x,
CCn1c(=O)c2c(nc(C=Cc3ccc(OC)c(OC)c3)n2C)n(CC)c1=O,x,-23.4,x,
Cc1ccc(Nc2c(F)cccc2Cl)c(CC(=O)O)c1,x,-16.5&-56.6,x,
CCOC(=O)c1cnc2ccc(-c3cncc(NS(=O)(=O)c4ccccc4)c3)cn12,x,7.5,x,
CC(C)(F)CC(NC(c1ccc(-c2ccc(S(C)(=O)=O)cc2)cc1)C(F)(F)F)C(=O)NC1(C#N)CC1 (centres undefined),x,-0.7,x,
CCCc1cc(C)[nH]c(=O)c1CNC(=O)c1cc(-c2ccc(N3CCN(C(C)C)CC3)nc2)cc2c1cnn2C(C)C,x,-55.0,x,
C=CC(=O)Nc1cc2c(Nc3ccc(F)c(Cl)c3)ncnc2cc1OCCCN1CCOCC1,x,-3.3&-6.1&-6.9,x,

# Grouped by structure, the compounds so far containing a Cl atom.
SMILES,GIV-Gai inh,HCMV UL50-53 inh,Sa growth inh,others
C[C@@H]1C[C@H]2[C@@H]3C[C@H](F)C4=CC(=O)C(Cl)=C[C@]4(C)[C@@]3(F)[C@@H](O)C[C@]2(C)[C@@]1(O)C(=O)CO,x,x,83.0,Sa growth inh second temp=53.4
O=S(=O)(c1cc(-c2nnc(-c3ccc(F)cc3)o2)ccc1Cl)N1CCOCC1,103.2,x,x,
CCc1nc(-c2cc(S(=O)(=O)Nc3ccc(F)cc3Cl)c(C)s2)cs1,102.3,x,x,
COc1cc2ncnc(Nc3ccc(F)c(Cl)c3)c2cc1NC(=O)C=CCN1CCCCC1,x,2.1,x,
CCC(C)n1ncn(-c2ccc(N3CCN(c4ccc(OCC5CO[C@](Cn6cncn6)(c6ccc(Cl)cc6Cl)O5)cc4)CC3)cc2)c1=O (some centres undefined),x,4.5&-27.1,x,
CN1CCC(Nc2ncc3ncnc(Nc4ccc(F)c(Cl)c4)c3n2)CC1,x,-49.4,x,
COc1cc(N2CCC(N(C)C)CC2)ccc1Nc1ncc(Cl)c(Nc2ccccc2P(C)(C)=O)n1,x,-8.5,x,
COc1cc2nccc(Oc3ccc(NC(=O)Nc4cc(C)on4)c(Cl)c3)c2cc1OC,x,-0.6&-18.8&-7.6&-8.5&-4.3&-6.9&-19.7&-7.0&-10.6,x,
O=C(NC1CCNCC1)c1[nH]ncc1NC(=O)c1c(Cl)cccc1Cl,x,-4.5&-11.3&-7.4&-2.9&-4.0&-8.1&-7.0&3.0,x,
Cc1ccc(Nc2c(F)cccc2Cl)c(CC(=O)O)c1,x,-16.5&-56.6,x,
C=CC(=O)Nc1cc2c(Nc3ccc(F)c(Cl)c3)ncnc2cc1OCCCN1CCOCC1,x,-3.3&-6.1&-6.9,x,

# Compound activity: PubChem, ICCB-Longwood Screening Facility, Harvard Medical School
